VDR inhibitor: Inhibitors of the vitamin D receptor (VDR): qHTS; Vitamin D3 receptor (Homo sapiens), P11473; VDR-SRC2-3 peptide fluorescence polarization, 2 h; Potency, µM, inactives show max response, negative = inhibition, actives largely listed as inhibitors; hit rate 0.93% among 400,000; AID 504847, 2011; active means well fitted inhibition curve with a large enough effect; inconclusive means small, poorly fitted or top-dose-only effect, or another doubt; inactive means no such curve, though single readings can be large or run the other way; further: series mostly up to about 120 µM
Target sequence (P11473 whole entry, looked up): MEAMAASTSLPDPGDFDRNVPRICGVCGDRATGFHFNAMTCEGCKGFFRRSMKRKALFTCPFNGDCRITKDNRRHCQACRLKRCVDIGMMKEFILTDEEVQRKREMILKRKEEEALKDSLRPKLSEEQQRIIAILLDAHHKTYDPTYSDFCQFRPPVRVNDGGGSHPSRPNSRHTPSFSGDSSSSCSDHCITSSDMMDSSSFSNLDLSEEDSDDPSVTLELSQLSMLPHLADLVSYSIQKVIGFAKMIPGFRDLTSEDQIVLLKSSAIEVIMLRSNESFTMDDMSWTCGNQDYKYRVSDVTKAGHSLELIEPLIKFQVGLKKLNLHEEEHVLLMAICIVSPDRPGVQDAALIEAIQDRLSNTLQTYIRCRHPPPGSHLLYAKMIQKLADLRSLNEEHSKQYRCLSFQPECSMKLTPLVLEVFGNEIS
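Measured by FP: displacement of SRC2-3 coactivator peptide from VDR by library compounds, following a two-hour ambient incubation.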
Starred values were filed as active, the others as inactive; ? = inconclusive. On the % scale 0 is the no-effect control and ±100 the full control effect; potency means the concentration at half of the fitted maximal effect. Some of the compounds tested, so the mix of outcomes need not match the whole.

SMILES | VDR inhibitor
CN1CCN(CCCNC(=O)c2ccc(/C=C3/Sc4ccccc4N(Cc4cccc(Cl)c4)C3=O)cc2)CC1 | 11%
O=C(COC(=O)c1c(F)cccc1F)Nc1ccc2c(c1)OCO2 | 0%
Cc1cc(OCC(=O)O)c2ccccc2n1 | 10%
Cc1cc(=O)[nH]c2n[nH]c(-c3ccccc3)c12 | 12%
CCN=C1SC(C(=O)Nc2cccc(OCC)c2)CC(=O)N1CC (stereo not given) | -5%
Cc1cc(C)c(NC(=O)Cn2nc3c(cc2=O)CCCC3)c(C)c1 | 4%
CCN1CCN(c2cc(C(C)C)nc3c(-c4ccccc4)c(C)nn23)CC1 | 7%
O=C(CC1CC2CCC1C2)N1CCN(S(=O)(=O)c2ccccc2C(F)(F)F)CC1 (stereo not given) | ?
Cc1nn(-c2ccccc2)c2c1cc1c(=O)[nH]c(=O)nc-1n2-c1cccc(C(F)(F)F)c1 | -20%
C=CCn1c(COc2ccccc2)nnc1SCC(=O)N/N=C/c1cc(Cl)ccc1O | 4%
COc1ccc(OC)c(NC(=O)CSc2ccc(-c3sc(C)nc3C)nn2)c1 | 1%
O=C1OCCC1Sc1nnc(-c2ccc3c(c2)OCO3)o1 (stereo not given) | -18%
CC(NC(=O)c1ccc(Br)s1)C1CCCO1 (stereo not given) | -1%
COc1ccccc1NC(=O)CN1C(=O)C(c2ccc(F)cc2)=NC1(C)C | 12%
CC1c2ccccc2-c2ccccc2N1C (stereo not given) | 9%
CCC(=O)NC(=S)Nc1cccc(NC(=O)c2ccccc2Cl)c1 | -6%
Cc1ccc(-n2c(N)c(C(=O)Nc3ccccc3F)sc2=S)cc1C | -6%
Cc1ccc(C2=NS(=O)(=O)N(C)C(C(=O)NCc3ccc4c(c3)OCO4)=C2)cc1 | -9%
Oc1ccc(Cl)cc1-c1cc(-c2ccco2)[nH]n1 | -14%
CC(C)(C)N(Cc1cc2ccccc2[nH]c1=O)C(=O)c1ccco1 | 0%
COC(=O)C1=C2SC(C)C(=O)N2C(N)=C(C#N)C1c1ccc(OC)c(OC)c1 (stereo not given) | -13%
Cc1ccc(NC(=O)C2CCN(S(=O)(=O)c3ccc4ccccc4c3)CC2)nc1 | -11%
CN(C)S(=O)(=O)N1CCC(Oc2cccc(C(=O)NC3CCCCC3)c2)CC1 | ?
O=C(NC(=S)NCc1cccnc1)c1cc(Br)ccc1Cl | 2%
Cc1ccc(C(=O)COC(=O)CNC(=O)CNC(=O)c2ccc(C)cc2)cc1 | -24%

The last 2 records of the section above are carried over, then new ones follow:
SMILES | VDR inhibitor
O=C(NC(=S)NCc1cccnc1)c1cc(Br)ccc1Cl | 2%
Cc1ccc(C(=O)COC(=O)CNC(=O)CNC(=O)c2ccc(C)cc2)cc1 | -24%
Cc1ccc(C(=O)c2oc3ccccc3c2NC(=O)COc2ccccc2C)cc1 | -1%
CSc1nnc2c(n1)OC1(Nc3ccccc3-2)C(=O)Nc2ccccc21 (stereo not given) | -17%
CCOCC(=O)Nc1nnc(COCC)s1 | 14%
CC(=O)N1c2ccc(S(=O)(=O)N3CCCCC3)cc2CC1C(=O)Nc1cccc(C)c1 (stereo not given) | -8%
Cc1ccc(C)c(N2CCN(C(=O)CCc3nc4ccccc4[nH]3)CC2)c1 | ?
Cc1cccc(Nc2nnc(SCC3CCCCO3)s2)c1 (stereo not given) | -15%
C=CCc1ccccc1OCC(O)CN1CCN(C(=O)OCC)CC1 (stereo not given) | -21%
N/C(=N\OC(=O)c1ccc(Cl)c([N+](=O)[O-])c1)c1ccccn1 | -6%
CC(C)C[C@H](NC(=O)[C@H](CO)NC(=O)[C@@H]1CCCN1C(=O)[C@H](Cc1ccc(O)cc1)NC(=O)[C@H](CC(C)C)NC(=O)[C@H](CC(C)C)NC(=O)[C@@H]1CCCN1C(=O)[C@@H](NC(=O)[C@H](CO)NC(=O)[C@H](CO)NC(=O)[C@H](CO)NC(=O)[C@H](CO)NC(=O)[C@@H]1CCCN1C(=O)[C@@H](NC(=O)[C@@H](N)CO)C(C)C)[C@@H](C)O)C(=O)N[C@@H](C)C(=O)N[C@@H](CC(C)C)C(=O)N1CCC[C@H]1C(=O)N[C@@H](C)C(=O)N1CCC[C@H]1C(=O)O | -2%
COc1ccc(NS(=O)(=O)c2ccc(O)c(C(=O)OCC(=O)Nc3ccc4c(c3)OCCO4)c2)cc1 | 2%
CC(C)OC(=O)CSc1nnc(CNc2cccc(Cl)c2)n1C | 1%
CCOc1ccc(C2C([N+](=O)[O-])=C(C)N(C)C(=O)N2C)cc1OC (stereo not given) | -21%
O=C(CCCNS(=O)(=O)c1ccc(Cl)c(Cl)c1)NCCc1ccccn1 | -17%
COc1cc(S(=O)(=O)N2CCC(N3CCCCC3)CC2)ccc1-n1cnnn1 | 3%
CC1CCN(C(=O)Cn2cc(C(F)(F)F)ccc2=O)c2ccccc2S1 (stereo not given) | -6%
CC(=O)c1c(C)[nH]c(C(=O)Nc2ccc(F)c(F)c2F)c1C | 15%
COc1ccccc1-n1c(SCC(=O)Nc2cccc(C(=O)O)c2)nnc1-c1ccccc1C | -24%
Cc1ccc(C(=O)N2CCCC(C(F)(F)F)C2)cc1S(=O)(=O)N1CCCCC1 (stereo not given) | -4%
Nc1nnn(CC(=O)N/N=C/c2ccccc2)n1 | -21%
Cc1ccc(/C=C/c2nnc(-c3ccccc3)o2)cc1 | -6%
Cc1ccc(OCCn2c(C3CC(=O)N(Cc4ccc(F)cc4)C3)nc3ccccc32)c(C)c1 (stereo not given) | 25%
Cc1csc(CNC(=O)c2cc(COc3c(C)cccc3C)on2)n1 | 5%
Cc1nc(-c2ccc(Cl)cc2)sc1C1(C)CC(c2ccc(Cl)cc2)=NO1 (stereo not given) | -15%
COc1ccc([C@@H]2[C@@H]3C(=O)N(C(C)(C)C)C(=O)[C@@H]3[C@]3(Cc4ccc(Cl)cc4)C(=O)N(c4ccc(Br)cc4)C(=O)N23)cc1 | -21%
CCCNc1nc(-c2cc(C(=O)Nc3ccccc3)on2)cc(C(C)C)n1 | -11%
New compounds follow:
SMILES | VDR inhibitor
O=C(CSc1nnnn1-c1ccccc1F)NNC(=O)c1ccco1 | -5%
CC(C)=CCN1CCN(Cc2ccc(C#CC(C)(C)O)cc2)CC1CCO (stereo not given) | -4%
CC(C)(C)C(=O)Cn1ncc(Br)c(Br)c1=O | -5%
O=C(NN(Cc1ccccc1)Cc1ccccc1)c1ccccc1 | 11%
O=C(Nc1ccc(Oc2ncnc3cc(Cl)ccc23)nc1)c1cccs1 | 0%
O=C1COc2ccc(S(=O)(=O)CCC(=O)N3CCN(c4ccccc4)CC3)cc2N1 | 2%
O=C(NCc1ccc(Cl)cc1)C(=O)NCC1OCCN1C(=O)c1cccs1 (stereo not given) | 2%
COc1ccc(-c2nc3scc(-c4ccc(OC)c(OC)c4)c3c(=O)o2)cc1 | -10%
Cc1cc(=O)[nH]c(Nc2cccc(F)c2)n1 | -3%
O=C1c2ccccc2C(=O)N1CC(=O)N1c2ccccc2CCc2ccccc21 | 2%
Cc1ccc(OCCCCN2CCC(C)CC2)cc1 | -7%
O=S(Cc1ccc(Br)cc1)Cc1nnc(SCc2c(F)cccc2Cl)n1-c1ccccc1 (stereo not given) | 10%
COc1ccccc1CN(C)C(=O)CSCC(=O)Nc1ccccc1F | -17%
Cc1ccc(-n2c(=O)c3c4c(sc3n(CC(=O)Nc3ccccc3C)c2=O)CCCCC4)cc1C | 1%
COc1ccccc1N1CCN(C(=O)CN2C(=O)C3CCCCC3C2=O)CC1 (stereo not given) | -11%
CCOC(=O)C1CCN(C(=O)COc2ccc(S(=O)(=O)N3CCCC3)cc2C)CC1 | -1%
c1ccc2nc3c(nc2c1)CCCC3 | 7%
Cc1ccc(NC(=O)CN2CCN(c3ccccc3F)CC2)cc1F | 3%
COc1ccc2nc(N3CCC(O)CC3)c(C#N)cc2c1 | -23%
Cc1cc(SCC(=O)c2ccc(O)c(O)c2)n2nc(C)c(-c3ccccc3)c2n1 | -3%
Cc1cc(C)cc(C(=O)Nc2c3c(nn2-c2ccccc2C)CS(=O)(=O)C3)c1 | 7%
CCOc1ccccc1N1CCN(Cc2ccc(OC)c(OC)c2)CC1 | -1%
O=C(CNC(=O)OCc1ccccc1)Oc1ccc2ccc(=O)oc2c1 | ?
COC(=O)c1ccccc1NC(=O)c1ccc(-c2ccc(Br)cc2)o1 | 12%
Cc1cc(C)n2nc(SCCC(=O)NCc3ccccc3)nc2n1 | -4%

Sorted by formula weight (falling): some entries from above
SMILES | VDR inhibitor
O=S(Cc1ccc(Br)cc1)Cc1nnc(SCc2c(F)cccc2Cl)n1-c1ccccc1 (stereo not given) | 10%
Cc1ccc(-n2c(=O)c3c4c(sc3n(CC(=O)Nc3ccccc3C)c2=O)CCCCC4)cc1C | 1%
O=C1COc2ccc(S(=O)(=O)CCC(=O)N3CCN(c4ccccc4)CC3)cc2N1 | 2%
Cc1cc(C)cc(C(=O)Nc2c3c(nn2-c2ccccc2C)CS(=O)(=O)C3)c1 | 7%
CC(C)(C)C(=O)Cn1ncc(Br)c(Br)c1=O | -5%
O=C(NN(Cc1ccccc1)Cc1ccccc1)c1ccccc1 | 11%
Cc1ccc(OCCCCN2CCC(C)CC2)cc1 | -7%

Additional structures:
SMILES | VDR inhibitor
CC(C)NS(=O)(=O)c1ccc(CCC(=O)Nc2ccc3c(c2)OCO3)cc1 | -11%
CCOC(=O)C1=C(O)/C(=C\c2cccs2)N=C1C | -17%
O=C(NC(CO)C(=O)OCc1ccccc1)OCc1ccccc1 (stereo not given) | -11%
Cc1cc(C)n(CCOC(=O)c2sc3ccccc3c2Cl)n1 | -7%
Cc1ccc(C)c(NC(=O)C(NS(=O)(=O)c2ccc3c(c2)CCC(=O)N3)c2ccccc2)c1 (stereo not given) | -5%
CCOc1ccccc1CNC(=O)c1cnc2sc(N3CCC(C)CC3)nn2c1=O | 0%
Cc1cccc(Nc2nc(N)c([N+](=O)[O-])c(N3CC(C)CC(C)C3)n2)c1 (stereo not given) | -9%
O=C(N/N=C/c1ccccc1[N+](=O)[O-])c1cnccn1 | 9%
CC(C)CN(C(=O)COC(=O)c1ccc2c(c1)NC(=O)CS2)C1CCS(=O)(=O)C1 (stereo not given) | -19%
CN(C(=O)CN1C(=O)S/C(=C\c2ccccc2)C1=O)C1CCS(=O)(=O)C1 (stereo not given) | -9%
CC(C)CC(NC(=O)C1CCC(=O)N1C(=O)OCc1ccccc1)C(=O)NC(Cc1ccccc1)C(N)=O (stereo not given) | 19%
CC1(C)Cc2nc3sc4c(=O)n(Cc5ccccc5)cnc4c3cc2CS1 | 3%
COc1ccc(-c2nc(SCC(=O)NCCc3ccccc3)n[nH]2)cc1 | 13%
CCOc1ccc(C2=Nn3c(nnc3-c3cccnc3)SC2)cc1 | 11%
Cc1cc(C)c(S(=O)(=O)N2CCc3ccccc32)c(C)c1 | -13%
Cn1c(CN2CCN(c3ccccc3NS(C)(=O)=O)CC2)nc2ccccc21 | -3%
CCOc1ccccc1N1C(=O)CC(Sc2nccc(C)n2)C1=O (stereo not given) | 12%
O=C(CSc1nnc(NC(=O)c2ccco2)s1)Nc1ccccc1Cl | 4%
CCc1nnc(NC(=O)Cn2nnc(-c3ccccc3F)n2)s1 | 2%
CCN(Cc1ccccc1)S(=O)(=O)c1cc(C(=O)NCC2CCCCC2)ccc1OC | -13%
O=C(CN1C(=O)NC2(CCCC2)C1=O)N1CCN(c2cccc(C(F)(F)F)c2)CC1 | -14%
O=S(=O)(c1cccs1)N1CCC(Cc2ccccc2)CC1 | -11%
CCOc1ccc(C(=O)OCC(=O)Nc2cc(S(=O)(=O)N3CCOCC3)ccc2N2CCOCC2)cc1 | -5%
CCn1nc(-c2ccccc2C)nc2c(=O)n(C)c(=O)nc1-2 | ?
O=C(Nc1ccccc1C(=O)O)c1ccc(Cl)c(S(=O)(=O)N2CCOCC2)c1 | 3%
(continued)
SMILES | VDR inhibitor
CCOC(=O)C1=C(O)/C(=C/c2ccccn2)SC1=Nc1ccc(Cl)cc1 | -18%
CC(C)CNC(=O)C(=O)NNC(=O)C1CCCCC1 | -2%
CC(C)Nc1nnc(SC(C)C(=O)N(C)C2CCCCC2)s1 (stereo not given) | -9%
CS(=O)(=O)Nc1cccc(C2=NN(S(=O)(=O)c3ccc(F)cc3)C(c3cccs3)C2)c1 (stereo not given) | -9%
COc1cc(NC(=O)c2cc(S(=O)(=O)N3CCC(C)CC3)cn2C)cc(OC)c1OC | -5%
O=C(Nc1cccc2cccnc12)c1ccc2c(c1)OCCO2 | -9%
COCCN(C(=O)COC(=O)CCOc1cc(C)ccc1C)c1c(N)n(Cc2ccccc2)c(=O)[nH]c1=O | ?
CCN(CC)CCNC(=O)Cc1nn(Cc2ccccc2)c(=O)c2ccccc12 | -14%
C/C(CC(=O)Nc1cc(C)ccn1)=N\NC(=O)C(=O)NC(C)C | 1%
Cn1cc(CNCc2cn(C)nc2-c2ccc(C3CCCCC3)cc2)cn1 | -18%
O=C(c1cc(COc2cccc3cnccc23)on1)N1CCCC(CCCO)C1 (stereo not given) | 8%
c1ccc2c(-c3nnc(SCc4cn5ccccc5n4)o3)c[nH]c2c1 | 3%
COCCCN1C(=O)c2ccccc2CC1(C)C(=O)NC1CCCCC1 (stereo not given) | -13%
C[C@H](CO)N1C[C@H](C)[C@@H](CN(C)CC2CCCCC2)Oc2ccc(NS(C)(=O)=O)cc2C1=O | 15%
CN(CC(=O)Nc1ccc(F)cc1)C(=O)c1ccccc1OCc1ccc(F)cc1 | 1%
CC1(C)NC(=O)N(CC(=O)OCC(=O)N2CCN(S(=O)(=O)c3ccccc3)CC2)C1=O | 1%
Cc1cccc(N2CC(=O)N(c3cccc(C)c3)CC2=O)c1 | -5%
CCCCCCCCCCCCC/C=C/[C@@H](O)[C@H](CO)NC(C)=O | 7%
COc1ccc(CN(C)CC(=O)Nc2sc3c(c2C#N)CCC3)c(OC)c1 | -3%
CCOc1ccc(S(=O)(=O)N2CCC(C(N)=O)CC2)c2ccccc12 | -25%
CCc1nnc(NC(=O)CSc2nnc(COc3ccccc3C)o2)s1 | 11%
C=CCNC(=O)c1onc(CCl)c1C(=O)OC | -10%
